ClpP mod: qHTS Assay for Activators of ClpP; ATP-dependent Clp protease proteolytic subunit (Bacillus subtilis (strain 168)), P80244; purified B. subtilis ClpP, FRET peptide cleavage, 20 min; Potency, µM (titrated, usually from 57.5 µM), inactives show at the highest dose activity change, negative = active; actives 1.9% (n = 340,000); AID 651965, 2013; active = well fitted falling curve with a large enough effect; inconclusive = small, poorly fitted or top-dose-only effect; inactive = no such curve, though single readings can be large or run the other way; further: potency means the concentration at half of the fitted maximal effect; the source files actives as falling curves though it sought activators and does not explain the sign; nearly all actives have a fitted effect of over 65% in size; many hits overshoot -100%
Target sequence (P80244 whole entry, looked up): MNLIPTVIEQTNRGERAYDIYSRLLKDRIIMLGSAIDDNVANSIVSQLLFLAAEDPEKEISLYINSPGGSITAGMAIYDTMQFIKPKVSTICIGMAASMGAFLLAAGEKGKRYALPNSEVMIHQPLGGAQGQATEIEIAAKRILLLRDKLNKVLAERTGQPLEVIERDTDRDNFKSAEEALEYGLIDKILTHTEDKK
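FRET quenching reversal measured ClpP activation: 10 microg/mL B. subtilis ClpP at pH 8 with the FRET-FV decapeptide, read at 430 nm after 320 nm excitation. The 20-min minus 0-min signal was scaled between DMSO/no-enzyme wells and ADEP (5.8 microM final).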
TRPV1 PAM: potentiators of human vanilloid receptor 1 (TRPV1); Q8NER1; TRPV1-expressing cells, Fluo-8 calcium influx, capsaicin EC20 potentiation; host cell line not named in the record; control for the full effect not named in the record; potentiation, % at 8.33 µM; actives 0.02% (n = 320,000); AID 540277; active means potentiation above 80%; inconclusive means 30% to 80%; inactive means below 30%; further: 0% is about no effect
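Fluo-8 calcium influx in TRPV1-expressing cells, kinetic read (ex 480/em 520 nm). Compound added and read 3 min for agonist activity, followed by capsaicin at EC20 final and 2 min further read for enhancement.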
Sfp inh: Sfp phosphopantetheinyl transferase inhibition; Q9F4F7; Biochemical Sfp PPTase activity, qHTS; Potency, µM, for inactives: max response, negative = inhibition, hits mostly inhibitors; actives 3.5% (n = 310,000); AID 1490; active means well fitted inhibition curve with a large enough effect; inconclusive means small, poorly fitted or top-dose-only effect, or another doubt; inactive means no such curve, though single readings can be large or run the other way;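 further: the enzyme is Sfp with the accession as filed and its product quenches rhodamine fluorescence; potency means the concentration at half of the fitted maximal effect; 0% = enzyme reaction without inhibitor and -100% = no enzyme wells; top concentration of the series not given in the record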
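After 15 min at room temperature with compound, 15 nM Sfp received 5 uM rhodamine-CoA plus 12.5 uM BHQ-2-ybbR (50 mM Hepes pH 7.6, 10 mM MgCl2). Rate came from the fluorescence difference over 30 min, ex 525/em 598 nm.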
Menin MLL FP FL: inhibitors of human menin-MLL interaction, wild-type MLL peptide; Fluorescence polarization, fluorescein-MLL peptide displacement from menin; FP activity change, % at 61.4 µM; 290,000 tested, under 10 active; AID 1766; inconclusive = falling polarisation curve, or a change in total fluorescence; inactive = total fluorescence flat and polarisation flat or rising; no compound was filed as active; the % refers to the polarisation; negative = inhibition;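 further: % of control where 0% means no effect; inhibitors lower the polarisation; unlabelled MLL peptide was the positive control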
gsp ag: gsp mutant agonism; Potency, µM (doses to about 76.9 µM), without a hit: at the top dose activation (cAMP increase), actives largely listed as activators; gsp mutant cells, cAMP HTRF, 30 min; control for the full effect not named in the record; actives 0.13% (n = 340,000); AID 624287; active = well fitted activation curve with a large enough effect; inconclusive = small, poorly fitted or top-dose-only effect, or another doubt; inactive = no such curve, though single readings can be large or run the other way; cell line not stated here;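 further: phosphodiesterase inhibitor Ro 20-1724 added with compounds to block cAMP breakdown; potency means the concentration at half of the fitted maximal effect; nearly all actives have a fitted effect of over 60% in size; about a fifth of the inactives were tested at one dose only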
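Cells in DMEM/10% FBS with G418 were pretreated with compounds in DMSO plus […] (300 uM stock) for 30 min at 37C. cAMP was measured by HTRF (cAMP-d2 plus anti-cAMP antibody-K) after 30 min at room temperature.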
TRPML1 blocker: blocks the human TRPML1 channel. activity change, negative = inhibition, % (test concentration not listed). Q9GZU1. TRPML1-inducible cells, Ca2+ dye fluorescence, FDSS; active compounds read low; inhibition of EC80 agonist-evoked calcium signal. AID 624415. actives 0.02% (n = 390,000); in the data active means activity change below about -50%; inconclusive means about -30% to -50%; inactive means above about -30%;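 further: stimulus is agonist 54-4 at its EC80 concentration; on the % scale 0 is the no-effect control and ±100 the full control effect; compound concentration not given in the record; the text of the record puts the active cut at -80%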
Target sequence (Q9GZU1 whole entry, looked up): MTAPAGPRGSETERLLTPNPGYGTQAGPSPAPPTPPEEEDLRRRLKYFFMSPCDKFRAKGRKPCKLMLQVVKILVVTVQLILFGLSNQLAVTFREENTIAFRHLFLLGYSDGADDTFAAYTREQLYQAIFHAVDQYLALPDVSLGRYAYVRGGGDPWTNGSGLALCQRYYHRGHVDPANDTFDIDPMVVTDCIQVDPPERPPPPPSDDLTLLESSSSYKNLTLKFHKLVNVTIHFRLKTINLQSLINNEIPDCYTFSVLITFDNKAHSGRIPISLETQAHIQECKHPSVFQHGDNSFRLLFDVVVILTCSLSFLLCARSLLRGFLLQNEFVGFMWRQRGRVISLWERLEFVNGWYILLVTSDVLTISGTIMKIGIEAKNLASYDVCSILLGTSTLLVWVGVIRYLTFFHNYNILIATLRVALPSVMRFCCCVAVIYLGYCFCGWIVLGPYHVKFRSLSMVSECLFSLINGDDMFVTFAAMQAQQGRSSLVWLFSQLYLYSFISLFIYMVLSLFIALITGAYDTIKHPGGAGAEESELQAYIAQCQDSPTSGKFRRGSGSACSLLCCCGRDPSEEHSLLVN
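TRPML1-DL cells, Tet-induced overnight (~16 h, 37 °C) at 1,500 cells/well, were loaded with Ca8 no-wash dye plus quencher for 45-90 min at room temperature. Compounds were pinned during FDSS kinetic reading; agonist 54-4 at EC80 (4 uM final) then added.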
gsp antagonist: gsp mutant antagonism | gsp-mutant cells, cAMP HTRF, 30 min; control for the full effect not named in the record | Potency, µM (highest dose often 76.9 µM), inactives show top-dose activity change, negative = inhibition, actives largely listed as inhibitors | actives 0.4% (n = 340,000) | AID 624288; active = falling curve of any shape with a large fitted effect; inconclusive = falling curve, mostly with a smaller effect; inactive = flat or rising curve; cell line not stated here;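 further: intracellular cAMP measured with PDE inhibitor Ro 20-1724 present during compound exposure; potency means the concentration at half of the fitted maximal effect; on the % scale 0 is the no-effect control and ±100 the full control effect; nearly all actives have a fitted effect of over 65% in size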
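Cells, 2000/well, grown 16–24 h in DMEM 10% FBS with 0.5 mg/ml G418, then compounds plus […] (300 uM addition stock), 30 min at 37C. cAMP read by HTRF (cAMP-d2 and anti-cAMP antibody-K in lysis buffer) after 30 min RT.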
Active calls of the source: *; ? = inconclusive; . = no result given; [ ] = another dose, or the depositor's remark. Random draw from the library, and some 4.9% of all compounds hit somewhere here.

SMILES | ClpP mod | TRPV1 PAM | Sfp inh | Menin MLL FP FL | gsp ag | TRPML1 blocker | gsp antagonist
CCOc1ccc(N(C)Cc2cc(=O)oc3ccc(OC)cc23)cc1 | . | -8.0 | -17.1% | -3.0 | -14.5% | 12.3 | -10.4%
CN1CCN(C(=O)C23CCC(C)(C(=O)C2Br)C3(C)C)CC1 (configuration not stated) | . | -0.6 | 26.3% | -1.7 | -0.3%[15.4 µM] | 8.3 | 6.4%
O=C(COc1ccc(Cl)cc1)Nc1ccc(C(=O)O)cc1NC(=O)COc1ccc(Cl)cc1 | 11.0% | 8.9 | 16.9% | . | -1.3% | 22.9 | -25.1%
Cc1cc(NC(=O)CSCC(=O)N(C)Cc2ccc(Cl)cc2Cl)no1 | 1.0% | 8.4 | . | . | -41.6%[inhibitor] | -10.7 | -3.1%
COc1ccc2cc(C(c3nnnn3Cc3ccc(F)cc3)N3CCCCCC3)c(=O)[nH]c2c1 (configuration not stated) | -19.4% | -0.9 | 17.8µM* | ? | 18.3% | 4.1 | -4.7%
CCN1C(=O)[C@H]2[C@H]3CN=C(SCC4CC4)N3[C@@](CC)(C(=O)OC)[C@H]2C1=O | -0.1% | . | . | . | . | 0.5 | 10.1%
O=C(N/N=C/c1ccccc1)c1cc(=O)[nH]c2ccccc12 | -15.7% | 8.3 | 1.8% | 0.5 | -46.5%[inhibitor] | -3.4 | 3.5%
COc1ccc(C2CC(c3ccccc3O)=NN2C(=O)c2ccccc2)cc1OC (configuration not stated) | 1.2% | 0.0 | -14.6% | 2.9 | -43.4%[inhibitor] | 42.7 | -12.0%
Cc1cccc[n+]1CC(=O)Nc1ccc([N+](=O)[O-])cc1 | -0.4% | 3.9 | 2.9% | 1.0 | 1.0% | 4.3 | -2.8%
Cc1cc(OCC(=O)Nc2ccc(S(=O)(=O)N3CCN(C)CC3)cc2)cc(C)c1Cl | 0.2% | 1.8 | ? | 5.6 | -3.7% | 2.9 | 4.9%
O=C1N[C@@H](c2ccccc2)COC(=O)[C@@H](Cc2ccc(F)cc2)CC/C=C/C[C@H]1CC(=O)N(CCO)Cc1ccccc1 | -2.5% | . | . | . | . | -15.5 | ?
CCOc1ccc(N/C=C/C(=O)c2ccc(OC)cc2)c([N+](=O)[O-])c1 | 0.8% | ? | 8.9% | 2.4 | -36.7%[inhibitor] | 1.3 | -6.4%
Cc1ccc2c(c1)N(CC(=O)c1cccc(Cl)c1)C(=O)C(C)O2 (configuration not stated) | -13.3% | -6.6 | 15.0% | 2.6 | 5.0% | -3.5 | -14.2%
C=CCSc1nnc(CCCCCN2C(=O)c3cccc4cccc(c34)C2=O)o1 | . | -2.2 | -7.4% | -5.2 | 4.5%[15.4 µM] | 31.6 | -14.2%
Cc1ccccc1-n1nnnc1-c1ccccc1 | -6.8% | 5.3 | -1.1% | 0.5 | 4.8% | -14.5 | -12.1%
CCc1nc(SCC(=O)Nc2cc(C)on2)c2c(C)c(C)sc2n1 | 0.4% | -7.3 | 7.2% | -6.9 | 15.8% | -2.9 | 3.9%
CCCCOP(=O)(c1ccc(N(C)C)cc1)C(O)c1ccc(C(C)C)cc1 (configuration not stated) | -2.2% | ? | 4.2% | 8.5 | -9.6% | -17.0 | 4.9%
COc1ccc(-c2c(-c3ccc(O)cc3O)n[nH]c2C)cc1OC | -6.9% | 9.0 | -0.8% | -2.8 | -5.0% | -4.9 | 3.9%
CCN(CC)S(=O)(=O)c1cccc(NC(=O)CCSc2ccc(Cl)cc2)c1 | -0.2% | 12.2 | 15.8% | -0.5 | ? | -5.5 | -15.2%
CCc1c(C)sc(NC(=O)c2cc(-c3ccco3)on2)c1C#N | -23.7% | -13.6 | ? | -1.2 | -2.4% | -7.5 | -0.3%
CC(=O)NC(c1ccc(C(C)C)cc1)c1ccc2cccnc2c1O (configuration not stated) | . | 0.8 | 6.4% | -2.9 | 16.4% | -4.8 | 9.2%
Cn1c(=O)n(CC(=O)N2CCOCC2)c2ccccc21 | 0.1% | 9.7 | 3.5% | -1.1 | -42.8%[inhibitor] | 7.1 | 2.4%
Cc1ccc(Nc2cc(C)nc(N3CCOCC3)n2)c(C)c1 | 0.2% | -16.2 | 2.1% | 0.1 | 7.9% | 2.5 | 3.1%
CCC1(C)Cc2ccccc2-c2nc(NCCO)[nH]c(=O)c21 (configuration not stated) | -1.3% | -19.0 | -6.2% | 4.8 | -1.2% | -2.8 | -1.7%
CC(OC(=O)c1ccc2ccccc2n1)C(=O)c1ccccc1 (configuration not stated) | -18.6% | 7.9 | 19.8% | -1.7 | 3.2% | . | -11.2%
SMILES | ClpP mod | TRPV1 PAM | Sfp inh | Menin MLL FP FL | gsp ag | TRPML1 blocker | gsp antagonist
CCCNc1[nH]c(=O)n(C)c(=O)c1N=O | -2.1% | -3.7 | 8.4% | -10.0 | -0.8% | 22.5 | 9.8%
COc1cccc(CNC(=O)C2CCN(S(=O)(=O)c3cccc4nonc34)CC2)c1 | -1.5% | 0.4 | 11.5% | -0.3 | -3.7%[15.4 µM] | -5.9 | 2.3%
O=C(c1ccco1)N1CCN(Cc2nnnn2CC2CCCO2)CC1 (configuration not stated) | 1.4% | 13.4 | -5.7% | 5.2 | 12.3% | 25.0 | -4.9%
COc1ccc(-n2nc3c(c2NC(=O)CC(C)C)CS(=O)C3)cc1 (configuration not stated) | -1.0% | 2.6 | 3.3% | -0.7 | -5.1% | -13.9 | 0.6%
CC1CC(C)CN(CC(O)COC2CC(C)CC(C)(C)C2)C1 (configuration not stated) | 1.7% | . | . | . | -3.1% | 15.7 | 9.0%
O=C(CCc1ccccc1)N1CCN(C(=O)CCc2ccccc2)CC1 | . | . | . | . | 4.8% | 16.5 | 3.8%
Cc1cc(C(F)(F)F)nn2cnnc12 | . | 11.6 | 18.9% | -0.1 | ? | 0.9 | 0.1%
Nc1nc(SCC(=O)Nc2cccnc2Cl)n[nH]1 | 0.6% | -1.9 | 19.7% | 1.5 | 29.0% | -8.6 | 3.5%
c1ccc2c(c1)[nH]c1c(N3CCSCC3)ncnc12 | ? | -7.2 | -3.8% | -1.0 | 20.9% | 24.1 | 14.1µM*
O=C(O)CN(c1ccccc1F)S(=O)(=O)c1ccccc1 | 1.3% | -0.2 | 13.1% | 0.8 | 14.3% | 12.8 | 5.2%
COc1ccc2oc(C(=O)OCC(=O)N(C)CC(=O)Nc3ccc(F)cc3)c(C)c2c1 | . | -5.5 | . | . | 23.8%[15.4 µM] | -1.5 | ?
O=C(c1ccccc1)C1CN(Cc2ccccc2)CCC1(O)c1ccccc1 (configuration not stated) | . | -17.2 | 3.0% | -5.1 | -7.6% | -6.2 | -16.7%
CC(=O)Nc1ccc(NC(=O)C2CC(=O)N(c3ccc(Cl)cc3)C2)cc1 (configuration not stated) | -0.7% | -2.5 | 5.2% | -1.7 | 33.0% | 14.2 | 0.0%
COC(=O)C(NS(=O)(=O)c1ccccc1Cl)c1ccccc1 (configuration not stated) | . | -0.5 | 27.3% | -0.4 | -20.4% | -8.8 | 6.6%
C(#Cc1ccccc1)C[N+]1(CC#Cc2cccc3ccccc23)CCOCC1 | -11.3% | 1.0 | ? | 3.0 | -5.6% | -6.2 | 7.7%
O=C(O)c1ccc2c(c1)OCCCO2 | 0.5% | 1.5 | -21.8% | -0.7 | 5.0% | -10.8 | -2.0%
Cc1ccc(NC(=O)c2sc3ncn(CC(=O)N4CCN(c5ccccn5)CC4)c(=O)c3c2C)cc1F | 2.1% | 22.6 | 18.1% | . | ? | -12.4 | -19.6%
CN(C(=O)CCc1nnc(-c2ccc(-c3ccccc3)cc2)o1)C1CCOCC1 | ? | -12.5 | 10.2% | . | 11.1% | -14.2 | -16.8%
CC[C@@]1(C(=O)OC)N[C@H](CN(C)S(=O)(=O)c2ccc(-c3ccccc3)cc2)[C@@H]2C(=O)N(C)C(=O)[C@@H]21 | 2.3% | . | . | . | . | -16.1 | 3.4%
COc1ccccc1-c1cc(C(F)(F)F)nc(S(=O)(=O)CCCC(=O)NCc2ccc(F)cc2)n1 | -1.5% | -0.4 | -1.6% | 1.2 | 0.7%[15.4 µM] | 6.7 | 17.6%
CCc1ccc(NC(=O)C/C(C)=N/NC(=O)OCc2ccc(OC)cc2)cc1 | -2.5% | 0.7 | -2.8% | 0.6 | 14.3% | 10.2 | 18.5%
CCN(CC)CCn1c(=S)[nH]c2cc(C(=O)NCc3ccc(C)cc3)ccc2c1=O | -3.6% | -6.7 | -1.9% | . | 11.6% | 8.8 | -10.9%
COc1ccc(NC(=O)c2ccco2)cc1N | -2.8% | -13.5 | -3.4% | 3.0 | -51.3%[inhibitor] | -5.8 | -12.6%
CCOC(=O)Cc1csc(NC(=O)COc2ccc(OC)cc2)n1 | -0.5% | 1.3 | -7.0% | -1.8 | -65.8%[inhibitor] | 28.7 | -3.5%
Cc1ccc(N(C(=O)c2ccc3c(c2)OCO3)C2C=CS(=O)(=O)C2)cc1 (configuration not stated) | -0.1% | -5.5 | -5.1% | -7.7 | 14.1% | -9.1 | -1.7%
COc1cccc(NC(=O)C2CCN(S(=O)(=O)c3ccc4c(c3)OCCO4)CC2)c1 | 1.0% | ? | 17.5% | 1.8 | -12.1% | -26.6 | -4.3%
Brc1ccc(-c2nnc3c4ccccc4nc(N4CCOCC4)n23)cc1 | -0.8% | -0.4 | 15.9% | 1.5 | -12.1% | -5.7 | -2.6%
Cc1ccc(NCC(=O)N=Nc2c(O)n(C)c3ccccc23)cc1 | . | 8.4 | ? | 0.9 | 28.3% | 14.9 | -4.4%

Part of the list above, showing only gsp ag:
| SMILES | gsp ag |
| --- | --- |
| Cc1ccc(NC(=O)c2sc3ncn(CC(=O)N4CCN(c5ccccn5)CC4)c(=O)c3c2C)cc1F | ? |
| CN(C(=O)CCc1nnc(-c2ccc(-c3ccccc3)cc2)o1)C1CCOCC1 | 11.1% |
